Compound activity from PubChem BioAssay.
FGF22 binding = shifts melting point of recombinant human FGF22. Q9HCT0. calls only at 9.99 µM. recombinant FGF22 thermal shift, SYPRO orange fluorescence; percent of sucrose octasulfate shift, DMSO zero. 340,000 tested, 1.5% active;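 active means melting point raised past a set limit in the mean and every replicate; inconclusive means no clear call; three in four hits are not shown here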
Target sequence (Q9HCT0 whole entry, looked up): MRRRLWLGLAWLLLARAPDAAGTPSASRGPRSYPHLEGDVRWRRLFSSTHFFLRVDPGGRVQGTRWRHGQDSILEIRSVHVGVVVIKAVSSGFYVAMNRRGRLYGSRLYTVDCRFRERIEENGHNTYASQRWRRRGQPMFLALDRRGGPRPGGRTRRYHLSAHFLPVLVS
MLL AF4-AF9 inh = blocks AF4 peptide binding to human AF9; P42568; AlphaScreen, biotin-AF4 peptide binding to FLAG-AF9; inhibition, % at 10 µM; 350,000 tested, 0.47% active; AID 651704;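 active means every replicate reaching a set inhibition limit, whatever the replicate mean, cut at about 25% in these data; inconclusive means mean inhibition reaches that limit but some replicates miss it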;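 further: 0% = plate neutral control median and 100% = total signal loss; the record names both 10 and 1 µM as test concentration; the first replicate is given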
Target sequence (P42568 whole entry, looked up): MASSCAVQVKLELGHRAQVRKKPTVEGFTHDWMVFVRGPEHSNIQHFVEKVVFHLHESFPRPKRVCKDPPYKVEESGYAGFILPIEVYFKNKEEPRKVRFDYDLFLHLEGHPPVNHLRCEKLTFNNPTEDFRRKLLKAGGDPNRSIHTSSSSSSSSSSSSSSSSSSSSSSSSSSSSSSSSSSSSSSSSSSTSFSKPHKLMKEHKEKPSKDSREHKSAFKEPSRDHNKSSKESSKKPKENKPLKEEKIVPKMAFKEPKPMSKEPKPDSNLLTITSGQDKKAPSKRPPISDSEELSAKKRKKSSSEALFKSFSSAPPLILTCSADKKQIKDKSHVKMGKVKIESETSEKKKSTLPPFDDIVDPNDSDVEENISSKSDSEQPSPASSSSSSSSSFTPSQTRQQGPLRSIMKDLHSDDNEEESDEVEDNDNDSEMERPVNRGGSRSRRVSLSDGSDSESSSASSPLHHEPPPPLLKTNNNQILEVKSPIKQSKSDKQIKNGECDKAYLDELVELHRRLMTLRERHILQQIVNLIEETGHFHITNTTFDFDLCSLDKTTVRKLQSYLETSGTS
* marks the source's active call; other numbers are inactive results; i = inactive; ? = inconclusive. These rows are one share of the data (hit frequency here may not be typical).

FGF22 binding	MLL AF4-AF9 inh	structure
i	2.1	CCCN(C)C[C@H]1Oc2cc(-c3cccc(OC)c3)ccc2S(=O)(=O)N([C@@H](C)CO)C[C@H]1C
i	-8.8	C#CCNC(=O)C[C@H]1C[C@@]2(C(=O)OC)C(=C[C@H](C3CCCC3)O[C@@H]2C)N(Cc2ccccc2)C1=O
i	-4.3	C[C@H](CO)N1C[C@H](C)[C@@H](CN(C)Cc2ccncc2)OCCCC[C@H](C)Oc2ccc(NC(=O)Nc3cccc4ccccc34)cc2C1=O
i	-1.8	C[C@@H]1CCCCO[C@@H](CN(C)C(=O)Nc2ccc(C(F)(F)F)cc2)[C@H](C)CN([C@@H](C)CO)C(=O)c2cc(NC(=O)Nc3ccc(F)cc3)ccc2O1
i	-0.7	CN(C)C(=O)c1ccc(-c2cccc(-c3nc(C(=O)N(C)C)cc4c3[C@H](CCO)N([S@@](=O)C(C)(C)C)C4)c2)cc1
i	-3.7	CNC[C@@H]1Oc2ccc(NS(=O)(=O)c3ccc(Cl)cc3)cc2C(=O)N([C@@H](C)CO)C[C@@H]1C
i	-1.4	C[C@@H]1CN([C@H](C)CO)C(=O)c2cc(NC(=O)c3ccncc3)ccc2O[C@@H](C)CCCCO[C@@H]1CN(C)CC1CCCCC1
i	-1.8	CC(C)NC(=O)N(C)C[C@@H]1OCc2cn(nn2)CCCC(=O)N([C@H](C)CO)C[C@@H]1C
i	-3.8	CC(C)CC#Cc1cnc2c(c1)C(=O)N([C@H](C)CO)C[C@@H](C)[C@@H](CN(C)C(=O)Nc1cc(F)ccc1F)O2
i	-0.5	C[C@H]1CN([C@@H](C)CO)C(=O)c2cc(NS(=O)(=O)c3cn(C)cn3)ccc2O[C@H]1CN(C)Cc1ccc(C(F)(F)F)cc1
i	1.6	C[C@H](CO)N1C[C@H](C)[C@H](CN(C)S(=O)(=O)c2ccccc2)Oc2ccc(NC(=O)Nc3cccc4ccccc34)cc2C1=O
i	-0.6	C[C@H](CO)N1C[C@H](C)[C@@H](CN(C)C(=O)CCCN(C)C)OCCCC[C@H](C)Oc2ccc(NC(=O)CCC(F)(F)F)cc2C1=O
i	-1.2	CO[C@@H]1CN(C)C(=O)c2cc(NC(=O)C3CC3)ccc2OC[C@@H](C)N(C(=O)C2CCCCC2)C[C@H]1C
i	-0.3	CCC(=O)NC[C@H]1[C@@H](c2ccc(-c3ccccc3)cc2)[C@@H](CO)N1C(=O)C1CC1
i	0.8	O=C(C[C@H]1CC[C@@H]2[C@H](COC[C@H](O)CN2S(=O)(=O)c2ccccc2Cl)O1)NCc1ccccc1Cl
i	4.5	COc1cccc(-c2ccc3c(c2)O[C@@H](CN(C)C)[C@H](C)CN([C@@H](C)CO)S3(=O)=O)c1
i	0.8	C[C@@H]1CN([C@H](C)CO)C(=O)c2cc(C#CC3CC3)cnc2O[C@H]1CN(C)S(=O)(=O)c1cccc(F)c1
i	1.2	C[C@H]1CN([C@@H](C)CO)C(=O)c2c(c3ccccc3n2C)-c2ccccc2CO[C@H]1CN(C)S(=O)(=O)c1ccccc1
i	1.6	CO[C@H]1CN(C)C(=O)c2ccc(NC(=O)c3ccccc3)cc2OC[C@H](C)N(CC2CC2)C[C@@H]1C
i	-2.8	COc1ccc2c3c([nH]c2c1)[C@@H](CO)N(Cc1ccc(F)cc1)CC31CCN(C(=O)NC(C)C)CC1
i	2.3	C[C@H](CO)N1C[C@H](C)[C@H](CN(C)Cc2ccc3c(c2)OCO3)OCCCC[C@H](C)Oc2ccc(NC(=O)c3ccncc3)cc2C1=O
i	5.5	C[C@H]1CCCCO[C@H](CN(C)C(=O)CCC(F)(F)F)[C@@H](C)CN([C@@H](C)CO)C(=O)c2cc(NS(=O)(=O)c3ccc(F)cc3)ccc2O1
i	-3.2	C[C@@H]1CN([C@@H](C)CO)C(=O)c2cc(C#C[C@@H](C)O)cnc2O[C@@H]1CN(C)C(=O)Nc1ccc(F)cc1
i	2.4	O=C(N[C@@H]1CC[C@@H](CCn2cc(C3(O)CCCC3)nn2)O[C@@H]1CO)C1CCCC1
i	-3.8	Cc1noc(C)c1S(=O)(=O)N(C)C[C@H]1Oc2c(NC(=O)c3cnccn3)cccc2C(=O)N([C@H](C)CO)C[C@H]1C
i	0.0	COc1ccc2c3c([nH]c2c1)[C@@H](CO)N(C(=O)Nc1ccc(F)cc1)CC31CN(CC2CCOCC2)C1
i	?	COc1ccc2c3c(n(C)c2c1)[C@H](CO)N(C(=O)C1CCC1)CC31CCN(Cc2cccc(F)c2)CC1
i	-3.7	COc1ccc(NC(=O)N(C)C[C@H]2Oc3ncc(C#C[C@H](C)O)cc3C(=O)N([C@H](C)CO)C[C@@H]2C)cc1
i	-2.0	CN(C)Cc1cn(CC[C@H]2CC[C@H](NC(=O)Nc3ccc4c(c3)OCO4)[C@H](CO)O2)nn1
i	0.3	C[C@H]1CCCCO[C@H](CN(C)C(=O)Nc2ccc(F)cc2)[C@@H](C)CN([C@@H](C)CO)C(=O)c2cc(NC(=O)Nc3ccc(F)cc3)ccc2O1
i	12	COc1ccc(CN(C)C[C@H]2OCCCC[C@H](C)Oc3ccc(NC(=O)Nc4ccc(F)cc4)cc3C(=O)N([C@H](C)CO)C[C@@H]2C)cc1
i	1.5	Cc1ccccc1-c1ccccc1[C@H]1[C@@H](C#N)N(C(=O)c2ccc(F)cc2)[C@H]1CO
i	-2.4	N#Cc1ccc(-c2ccc3c(c2)[C@@H]2[C@@H](CCN2C(=O)C2CCCCC2)[C@@H](CO)N3)cc1
i	-0.9	COc1cccc(C(=O)Nc2ccc3c(c2)OC[C@@H](C)N(C(=O)C2CC2)C[C@@H](C)[C@H](OC)CN(C)C3=O)c1
i	-4.5	CCN1C[C@@H]2[C@@H]3C(=O)N(Cc4ccccc4)C(=O)[C@@H]3[C@](CC)(C1=O)N2C(=O)c1ccc(Cl)cc1
i	-0.5	COc1cccc(S(=O)(=O)N[C@H]2CC[C@H](CC(=O)NCc3ccc(Cl)cc3)O[C@H]2CO)c1
i	-0.4	COc1ccc(S(=O)(=O)N(C)C[C@H]2Oc3ccc(NC(=O)Cc4ccccc4)cc3C(=O)N([C@@H](C)CO)C[C@H]2C)cc1
i	0.5	COc1ccc(-c2ccc3c(c2)[C@H]2[C@H](CCN2C(=O)CN2CCOCC2)[C@H](CO)N3)cc1
i	2.3	C[C@@H]1CN([C@@H](C)CO)C(=O)c2cc(C#Cc3ccccc3F)cnc2O[C@@H]1CN(C)C(=O)C1CCCCC1
i	16	COc1cccc(-c2ccc3c(c2)[C@H]2[C@H](CCN2C(=O)c2cccc(F)c2)[C@@H](CO)N3)c1
i	-0.7	CS(=O)(=O)N1[C@H](CO)[C@@H](c2ccc(-c3ccccc3F)cc2)[C@@H]1C#N
i	-1.2	COc1ccc2c3c([nH]c2c1)[C@@H](CO)N(C(=O)Nc1ccccc1F)CC31CCN(C(C)=O)CC1
i	-3.5	C[C@H](CO)N1C[C@H](C)[C@@H](CN(C)C(=O)c2ccccc2F)Oc2ncc(C#CC(C)(C)O)cc2C1=O
i	-4.6	CCCNC(=O)N(C)C[C@@H]1Oc2ncc(-c3ccncc3)cc2C(=O)N([C@@H](C)CO)C[C@@H]1C
i	-1.0	CCCN1C[C@H](C)[C@H](OC)CN(C)C(=O)c2ccc(NC(=O)c3cccc(OC)c3)cc2OC[C@@H]1C
i	-14	C[C@H](CO)N1C[C@H](C)[C@H](CN(C)S(=O)(=O)c2cn(C)cn2)Oc2ccc(NS(=O)(=O)c3cccs3)cc2CC1=O
i	1.1	CCCC#Cc1ccc2c(c1)O[C@H](CN(C)S(C)(=O)=O)[C@@H](C)CN([C@@H](C)CO)S2(=O)=O
i	-0.3	C[C@H]1CN([C@@H](C)CO)C(=O)c2cc(NS(=O)(=O)c3ccc(F)cc3)ccc2O[C@@H]1CN(C)C
i	-2.7	C[C@H](CO)N1C[C@H](C)[C@@H](CN(C)Cc2ccc(C(=O)O)cc2)Oc2ccc(NC(=O)Cc3ccccc3)cc2CC1=O
i	-3.2	Cc1ccc(S(=O)(=O)Nc2ccc3c(c2)C(=O)N([C@@H](C)CO)C[C@@H](C)[C@@H](CN(C)C(=O)CCCN(C)C)OCCCC[C@H](C)O3)cc1

Single records, from the list above. Values in the order: FGF22 binding	MLL AF4-AF9 inh
`COc1ccc2c3c([nH]c2c1)[C@@H](CO)N(C(=O)Nc1ccccc1F)CC31CCN(C(C)=O)CC1` across the screens: i	-1.2
`COc1ccc(-c2ccc3c(c2)[C@H]2[C@H](CCN2C(=O)CN2CCOCC2)[C@H](CO)N3)cc1` across the screens: i	0.5

New compounds follow:
FGF22 binding	MLL AF4-AF9 inh	structure
i	-6.2	C[C@@H]1CN([C@@H](C)CO)S(=O)(=O)c2ccc(C#CC3(O)CCCC3)cc2O[C@@H]1CN(C)C(=O)Cc1ccncc1
i	-8.5	C[C@H]1CN([C@@H](C)CO)C(=O)Cc2cc(NC(=O)NC3CCCCC3)ccc2O[C@H]1CN(C)S(=O)(=O)c1cn(C)cn1
i	-1.5	COC(=O)C[C@@H]1CC[C@@H]2[C@H](COc3ccc(NC(=O)c4cc(C)on4)cc3C(=O)N2C)O1
i	15	O=C(c1ccc(F)cc1)N1CCCCN2[C@H](CO)[C@H](c3ccc(/C=C/c4ccccc4)cc3)[C@H]2C1
i	3.0	CC(C)NC(=O)N[C@H]1CC[C@@H](CCNC(=O)C2CCCC2)O[C@@H]1CO
i	-1.9	CN1[C@@H]2Cn3c(ccc(C4=CCCC4)c3=O)[C@H]1[C@@H](C(=O)N1CCCCC1)[C@@H]2CO
i	0.4	C[C@@H]1CN([C@@H](C)CO)S(=O)(=O)c2ccc(-c3ccc(C#N)cc3)cc2O[C@@H]1CN(C)C(=O)CN(C)C
i	-0.6	CCCC(=O)Nc1ccc2c(c1)OC[C@H](C)N(C(=O)c1cccnc1)C[C@@H](C)[C@H](OC)CN(C)C2=O
i	-3.5	C[C@H](CO)N1C[C@H](C)[C@H](CN(C)C)Oc2ncc(-c3ccncc3)cc2C1=O
i	-3.1	C[C@@H]1CN([C@H](C)CO)C(=O)c2cccc(NC(=O)C3CCCCC3)c2O[C@@H]1CN(C)Cc1ccc(C(=O)O)cc1
i	-0.5	C[C@H](CO)N1C[C@H](C)[C@@H](CN(C)Cc2ccncc2)Oc2ncc(-c3ccc(C#N)cc3)cc2C1=O
i	2.3	COCC(=O)Nc1ccc2c(c1)C(=O)N(C)C[C@@H](OC)[C@H](C)CN(Cc1ccccc1OC)[C@@H](C)CO2
i	2.9	Cc1ccc(S(=O)(=O)N2C[C@@H](O)COC[C@H]3O[C@H](CC(=O)NCc4ccc(Cl)c(Cl)c4)CC[C@@H]32)cc1
i	4.3	COc1ccc2c3c(n(C)c2c1)[C@H](CO)N(C(=O)C1CCC1)CC31CN(C)C1
i	-2.4	Cc1noc(C)c1NC(=O)N(C)C[C@H]1Oc2ccc(NS(=O)(=O)c3ccccc3)cc2CC(=O)N([C@@H](C)CO)C[C@H]1C
i	-5.4	CC(C)NC(=O)Nc1ccc2c(c1)C(=O)N([C@@H](C)CO)C[C@H](C)[C@H](CN(C)Cc1ccc(C(=O)O)cc1)O2
i	2.2	CO[C@H]1CN(C)C(=O)c2cc(NC(C)=O)ccc2OC[C@H](C)N(Cc2cc(F)ccc2F)C[C@H]1C
i	-0.1	O=C(CN1CCOCC1)N[C@@H]1CC[C@@H](CCn2cc(C3CCCCC3)nn2)O[C@@H]1CO
i	1.1	CO[C@H]1CN(C)C(=O)c2cc(NC(=O)C3CC3)ccc2OC[C@@H](C)N(C(=O)CN(C)C)C[C@H]1C
i	1.1	O=C(C[C@H]1CC[C@H]2[C@@H](COC[C@H](O)CN2C(=O)Nc2ccc(F)cc2)O1)NCCc1ccccc1
i	-0.5	Cc1ccc(S(=O)(=O)N[C@H]2CC[C@@H](CCn3cc(-c4cccnc4)nn3)O[C@@H]2CO)cc1
i	-4.3	COc1ccc2c3c([nH]c2c1)[C@@H](CO)N(C(=O)CN1CCOCC1)CC31CN(C(C)=O)C1
i	3.1	CCCN(C)C[C@@H]1Oc2cc(-c3ccccc3OC)ccc2S(=O)(=O)N([C@@H](C)CO)C[C@@H]1C
i	-0.6	COc1ccc(CN(C)C[C@@H]2OCCCC[C@H](C)Oc3ccc(NC(=O)NC(C)C)cc3C(=O)N([C@@H](C)CO)C[C@H]2C)cc1
i	-2.0	CCCNC(=O)N(C)C[C@H]1Oc2cc(C#CC(C)(C)O)ccc2S(=O)(=O)N([C@H](C)CO)C[C@H]1C
i	-1.0	COc1ccc(C#Cc2ccc([C@@H]3[C@@H](CO)N4C(=O)CN(C(=O)C5CCOCC5)C[C@@H]34)cc2)cc1
i	-0.9	O=C(C[C@H]1C=C[C@@H](NC(=O)c2ccc(F)cc2)[C@H](CO)O1)NCCc1ccncc1

An excerpt from the list above:
FGF22 binding	MLL AF4-AF9 inh	structure
i	-6.2	C[C@@H]1CN([C@@H](C)CO)S(=O)(=O)c2ccc(C#CC3(O)CCCC3)cc2O[C@@H]1CN(C)C(=O)Cc1ccncc1
i	-8.5	C[C@H]1CN([C@@H](C)CO)C(=O)Cc2cc(NC(=O)NC3CCCCC3)ccc2O[C@H]1CN(C)S(=O)(=O)c1cn(C)cn1
i	-1.5	COC(=O)C[C@@H]1CC[C@@H]2[C@H](COc3ccc(NC(=O)c4cc(C)on4)cc3C(=O)N2C)O1
i	15	O=C(c1ccc(F)cc1)N1CCCCN2[C@H](CO)[C@H](c3ccc(/C=C/c4ccccc4)cc3)[C@H]2C1
i	3.0	CC(C)NC(=O)N[C@H]1CC[C@@H](CCNC(=O)C2CCCC2)O[C@@H]1CO
i	-1.9	CN1[C@@H]2Cn3c(ccc(C4=CCCC4)c3=O)[C@H]1[C@@H](C(=O)N1CCCCC1)[C@@H]2CO
i	0.4	C[C@@H]1CN([C@@H](C)CO)S(=O)(=O)c2ccc(-c3ccc(C#N)cc3)cc2O[C@@H]1CN(C)C(=O)CN(C)C
i	-0.6	CCCC(=O)Nc1ccc2c(c1)OC[C@H](C)N(C(=O)c1cccnc1)C[C@@H](C)[C@H](OC)CN(C)C2=O
i	-3.5	C[C@H](CO)N1C[C@H](C)[C@H](CN(C)C)Oc2ncc(-c3ccncc3)cc2C1=O
